Screens (PubChem BioAssay)
YopH PTP inh: blocks Yersinia enterocolitica YopH tyrosine phosphatase | AID 898 | inhibition, %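 (about 10 µM by stock and volumes)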 | fluorescence Ex485/Em525 | actives 0.16% (n = 140,000);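 active = inhibition of 50% or more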;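 note: controls were vehicle for no effect and minimum signal wells for full effect; inactives centre near -20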
Mtb bLac sens: beta-lactam sensitization of Mtb H37Rv. M. tuberculosis H37Rv growth with meropenem, percent inhibition; hits of this screen are not shown here. inhibition, % at 25 µM. actives 0.27% (n = 330,000);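 active = about 74% or more and at least 40 points above the plate without the antibiotic, then above 30% in a dose series; inconclusive = first-round hits that could not be retested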;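 note: growth measured after seven days incubation then overnight dye step; 0% = bacteria only wells and 100% = bacteria with antibiotic; twin plates without the antibiotic show which effects depend on it; some results filed as inactive read as strong as hits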
Mtb growth: M. tuberculosis H37Rv growth inhibitors, H37Rv strain (AID 1626). one-dose inhibition, % at 10 µM; IC50 in µM for titrated hits. M. tuberculosis H37Rv growth inhibition; higher % means a stronger effect. actives 0.95% (n = 220,000);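 active = confirmed in a dose series; inconclusive = inhibition above 80% but not taken into the dose series; inactive = below 80% or under 30% at every dose of the series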;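 note: bacteria incubated seven days before Alamar blue readout; 0% = bacteria only wells and 100% = bacteria with antibiotic wells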
Arbovirus anti: antivirals against arbovirus infection | arbovirus infection cell-based antiviral screen | actives 0.37% (n = 200,000) | inhibition, % at 10 µM;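 active = inhibition from about 30%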;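 note: bluetongue infection of BSR cells; cell survival read as ATP light after 72 h; 0% = infected wells without compound and 100% = uninfected wells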
RecA intein inh: blocks M. tuberculosis RecA intein splicing | P9WHJ3 | cell-free RecA intein splicing, fluorescence | inhibition, %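 (about 9 µM by stock and volumes)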 | actives 0.75% (n = 290,000) | AID 2221; in the data active = inhibition above about 30%; inconclusive = no clear call, values can overlap the other calls;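 note: 0% = vehicle wells and 100% = reference inhibitor control wells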
Target sequence (P9WHJ3 whole entry, looked up): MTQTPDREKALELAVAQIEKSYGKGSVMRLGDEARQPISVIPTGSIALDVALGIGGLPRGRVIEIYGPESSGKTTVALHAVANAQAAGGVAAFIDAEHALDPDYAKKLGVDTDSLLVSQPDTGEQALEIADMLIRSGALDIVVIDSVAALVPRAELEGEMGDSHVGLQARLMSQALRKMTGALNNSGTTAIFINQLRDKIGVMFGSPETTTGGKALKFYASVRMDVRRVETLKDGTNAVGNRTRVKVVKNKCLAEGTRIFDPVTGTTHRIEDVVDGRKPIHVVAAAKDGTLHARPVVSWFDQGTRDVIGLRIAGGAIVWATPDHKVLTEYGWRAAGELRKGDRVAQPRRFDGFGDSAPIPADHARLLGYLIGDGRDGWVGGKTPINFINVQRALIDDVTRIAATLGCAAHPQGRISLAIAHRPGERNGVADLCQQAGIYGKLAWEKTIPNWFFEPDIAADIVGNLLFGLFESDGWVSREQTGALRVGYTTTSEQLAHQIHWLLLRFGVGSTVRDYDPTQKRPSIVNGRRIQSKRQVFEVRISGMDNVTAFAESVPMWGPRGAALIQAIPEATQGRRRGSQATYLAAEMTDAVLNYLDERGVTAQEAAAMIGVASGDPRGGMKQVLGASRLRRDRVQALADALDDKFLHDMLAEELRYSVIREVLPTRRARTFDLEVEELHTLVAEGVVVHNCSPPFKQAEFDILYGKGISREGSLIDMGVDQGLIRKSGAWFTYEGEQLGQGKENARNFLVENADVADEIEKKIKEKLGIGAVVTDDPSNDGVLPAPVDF
Starred values were filed as active, the others as inactive. The list is partial. The share of hits here may be higher or lower than overall.

Oc1ccc(/C=N/NC(=S)NC2CC3CCC2C3)cc1 (centres undefined) was read as Mtb bLac sens 84, Mtb growth 2% and RecA intein inh 1.7.
CNCCc1ccc(O)c(O)c1 was read as Mtb bLac sens 4, Mtb growth -10% and RecA intein inh -1.6.
`CCOc1ccc(S(=O)(=O)c2c(C(=O)c3ccccc3)cnc3cc4c(cc23)OCCO4)cc1` gave YopH PTP inh -19, Mtb bLac sens 17, Mtb growth 4%, Arbovirus anti 12 and RecA intein inh 1.1.
Screening NS(=O)(=O)c1cccc(NC(=O)COc2ccc([N+](=O)[O-])cc2)c1 returned Mtb bLac sens -4, Mtb growth 0%, Arbovirus anti 9 and RecA intein inh -3.2.
Screening COc1ccc(CNC(=O)CNS(=O)(=O)c2cccs2)cc1 returned Mtb bLac sens 6 and RecA intein inh -2.2.
For Cc1ccc(NC(=O)CCn2c(=O)oc3ccccc32)c(C)c1 the results were YopH PTP inh -57, Mtb bLac sens 0, Mtb growth -9%, Arbovirus anti 0 and RecA intein inh 1.2.
For COc1ccccc1-c1nnc(SCC(=O)Nc2ccc(S(N)(=O)=O)cc2)n1N the results were Mtb bLac sens -7, Mtb growth -7% and RecA intein inh -5.5.
Screening COc1cc(Br)cc(/C=N/N(CCO)C2=NS(=O)(=O)c3ccccc32)c1OC returned Mtb bLac sens -2 and RecA intein inh 2.2.
Screening COc1ccccc1CNC(=O)C(=O)NCC1OCCN1S(=O)(=O)c1ccc(Br)cc1 (centres undefined) returned Mtb bLac sens 11 and RecA intein inh 0.9.
Screening CCCCc1cc(=O)oc2cc(C)cc(OCC(=O)N3CCC(C(N)=O)CC3)c12 returned Mtb bLac sens -7 and RecA intein inh 0.2.
For COC(=O)CC1COc2ccccc2N1S(=O)(=O)c1ccc(Br)cc1 (centres undefined) the results were Mtb bLac sens 3 and RecA intein inh 1.3.
Screening O=C(Cc1ccc([N+](=O)[O-])cc1)N1N=C(C2CC2)CC1(O)C(F)(F)F (centres undefined) returned Mtb bLac sens 2, Mtb growth 8%, Arbovirus anti 5 and RecA intein inh -0.1.
For Clc1ccc(-c2ncc3ccccn23)cc1 the results were Mtb bLac sens 8, Mtb growth 0%, Arbovirus anti 3 and RecA intein inh 2.5.
For Cc1ccc(C(=O)NC2CCN(C(=O)NC3CCCCC3)CC2)cc1 the results were YopH PTP inh 5, Mtb growth -6%, Arbovirus anti -4 and RecA intein inh 1.6.
Screening CCc1nc(Nc2ccccc2)c2nnn(Cc3ccccc3)c2n1 returned Mtb bLac sens 33 and RecA intein inh 5.2.
Screening O=C(Nc1cccnc1)c1ccc(S(=O)(=O)N2CCCCCC2)cc1 returned YopH PTP inh -3, Mtb bLac sens -2, Mtb growth -2%, Arbovirus anti 3 and RecA intein inh 2.8.
For CC(C)c1ccc(/C=C(\NC(=O)c2ccccc2)C(=O)NCCCn2ccnc2)cc1 the results were Mtb bLac sens inconclusive and RecA intein inh 6.1.
Screening O=C(CSc1c[nH]c2ccccc12)NC1CCCC1 returned Mtb bLac sens 2 and RecA intein inh -1.2.
For COc1ccc(N(CC(=O)Nc2ccc(C)c(C)c2)C2=NC3CS(=O)(=O)CC3S2)cc1 (centres undefined) the results were Mtb bLac sens 3 and RecA intein inh 0.0.
Screening Cc1c(C(=O)NNC(=O)Nc2ccc([N+](=O)[O-])cc2)oc2ccccc12 returned Mtb bLac sens 8 and RecA intein inh 2.1.
`CC1(C)Cc2nc3sc4c(SCC(=O)O)ncnc4c3cc2CO1` gave Mtb bLac sens 3, Mtb growth -6% and RecA intein inh -1.2.
`CCOC(=O)Cc1csc(SCC(=O)NC2CCCCC2)n1` gave YopH PTP inh -30, Mtb bLac sens -1, Mtb growth -3%, Arbovirus anti -2 and RecA intein inh 1.8.
O=C(N/N=C/c1cccc(OCc2ccccc2)c1)c1cccs1 was read as YopH PTP inh -11, Mtb bLac sens 71, Mtb growth -1%, Arbovirus anti -12 and RecA intein inh 9.2.
O=C(Nc1ccc2c(c1)OCCO2)c1cc(F)c(F)cc1Cl was read as Mtb bLac sens -2 and RecA intein inh -1.9.
COC(=O)c1c(NC(=O)c2ccccc2)sc(Cc2ccccc2)c1C was read as YopH PTP inh -37, Mtb bLac sens -10, Mtb growth -9%, Arbovirus anti -6 and RecA intein inh 0.2.
CC1(OC(=O)c2cccs2)C(=O)C=C2C=C(C3CC3)OC=C2C1=O (centres undefined) was read as Mtb bLac sens -6, Mtb growth -10% and RecA intein inh -6.0.
CCCCOC(=O)C1=C(N)OC2=C(C(=O)CCC2)[C@]12C(=O)N(C)c1ccccc12 was read as YopH PTP inh -39, Mtb bLac sens 1, Mtb growth -7%, Arbovirus anti 2 and RecA intein inh 5.4.
CCN(CC)S(=O)(=O)c1ccc2c(c1)N(CC(=O)NCCN1CCOCC1)C(=O)CO2 was read as Mtb bLac sens 1 and RecA intein inh 0.9.
`N#C/C(=C\c1ccccn1)c1ccccn1` gave Mtb bLac sens 1 and RecA intein inh -1.4.
Screening CCOc1cc2[nH]c(=O)n(Cc3ccc(C(=O)NCCCN4CCCC4=O)cc3)c(=O)c2cc1OCC returned Mtb bLac sens 6, Mtb growth 4%, Arbovirus anti 11 and RecA intein inh -2.6.
CCOc1ccccc1C(=O)NCc1ccco1 was read as YopH PTP inh -32, Mtb bLac sens -4, Mtb growth -5%, Arbovirus anti 1 and RecA intein inh 2.8.
Screening COc1ccc(C(=O)N2CCN(c3ccccn3)CC2)cc1[N+](=O)[O-] returned Mtb bLac sens 0, Mtb growth -5%, Arbovirus anti 5 and RecA intein inh -2.2.
`COc1ccc(C(=O)NC(=S)Nc2ccc(Cl)c(C(=O)O)c2)cc1` gave Mtb bLac sens 2, Mtb growth 0%, Arbovirus anti 0 and RecA intein inh 2.0.
For CCCCCCN=C(C)c1c(O)n(Cc2ccccc2)c(=O)[nH]c1=O the results were YopH PTP inh -20, Mtb bLac sens -3, Mtb growth 11%, Arbovirus anti 6 and RecA intein inh 4.3.
COCCCNc1nnc(Cc2ccccc2)c2ccccc12 was read as Mtb bLac sens 0, Mtb growth 2%, Arbovirus anti 1 and RecA intein inh 1.4.
`Clc1ccccc1Cc1noc(CN2CCN(Cc3ccccn3)CC2)n1` gave Mtb bLac sens 2, Mtb growth 0%, Arbovirus anti 4 and RecA intein inh -3.2.
Screening O=S(=O)(CCc1nnc(-c2ccc(Br)cc2)o1)c1ccc(Cl)cc1 returned YopH PTP inh 5, Mtb bLac sens 69, Mtb growth inconclusive, Arbovirus anti 4 and RecA intein inh -1.6.
For Cc1cc(-c2c(C)[nH]n(-c3ccc(Cl)cc3)c2=O)n(-c2ccc(Cl)cc2)n1 the results were YopH PTP inh -36, Mtb bLac sens -4, Mtb growth -8%, Arbovirus anti 14 and RecA intein inh 0.1.
For CCOC(=O)c1cn2nc(Oc3ccc(NC(C)=O)cc3)ccc2n1 the results were Mtb bLac sens -3, Mtb growth 0% and RecA intein inh -1.3.
Cc1ccc(NC(=O)COC(=O)/C=C/c2cccc(Cl)c2)cc1S(=O)(=O)N1CCOCC1 was read as YopH PTP inh -30, Mtb bLac sens -2, Mtb growth -1%, Arbovirus anti 0 and RecA intein inh 4.4.

Compounds listed so far that contain a COOH group:
`CC1(C)Cc2nc3sc4c(SCC(=O)O)ncnc4c3cc2CO1` gave Mtb bLac sens 3, Mtb growth -6% and RecA intein inh -1.2.
`COc1ccc(C(=O)NC(=S)Nc2ccc(Cl)c(C(=O)O)c2)cc1` gave Mtb bLac sens 2, Mtb growth 0%, Arbovirus anti 0 and RecA intein inh 2.0.

Next entries.
`N#Cc1c(N)nc(N2CCCC2)c(C#N)c1-c1ccc(Cl)cc1` gave YopH PTP inh -27, Mtb bLac sens -32, Mtb growth 1%, Arbovirus anti 3 and RecA intein inh -0.5.
For CCCCn1nc(C(=O)N2CCc3ccccc32)c2ccccc2c1=O the results were YopH PTP inh -8, Mtb bLac sens 9, Mtb growth 8%, Arbovirus anti 0 and RecA intein inh 10.
CNS(=O)(=O)c1cccc(C(=O)OCC(=O)Nc2ccc(N3CCCCC3)cc2)c1 was read as Mtb bLac sens -6, Mtb growth -8%, Arbovirus anti 2 and RecA intein inh -1.6.
`CCOC(=O)c1cnn(-c2cc(Oc3ccccc3C)ncn2)c1N` gave YopH PTP inh -21, Mtb bLac sens 73, Mtb growth 6%, Arbovirus anti -3 and RecA intein inh 1.3.
Screening Cc1ccc(S(=O)(=O)N2CCOCC2)cc1NC(=O)COC(=O)c1n[nH]c(=O)c2ccccc12 returned Mtb bLac sens 6, Mtb growth -1%, Arbovirus anti 2 and RecA intein inh -1.2.
For Cn1c(CCN2CCCCC2)nc2cc(NC(=O)COc3ccccc3)ccc21 the results were Mtb bLac sens -5 and RecA intein inh 0.5.
For COc1ccc(S(=O)(=O)N2CC(O)C[C@H]2C(=O)OCC(=O)N2CCCCCC2)cc1 (some centres undefined) the results were Mtb bLac sens 2, Mtb growth 1%, Arbovirus anti 4 and RecA intein inh -0.5.
COc1ccc(CN2CCN(C(=O)CC(C)C)CC2)cc1Br was read as Mtb bLac sens -1 and RecA intein inh -0.7.
`N#Cc1cccc(NC(=O)Cn2cnc(S(=O)(=O)N3CCCC3)c2)c1` gave Mtb bLac sens 7 and RecA intein inh -0.1.
Cc1cc(NC(=O)c2cc3cccc([N+](=O)[O-])c3[nH]2)ccc1F was read as Mtb bLac sens 97 and Mtb growth 12%.
`COc1ccc(-n2c(SCC(=O)NCc3ccco3)nc3c([nH]c4ccccc43)c2=O)cc1` gave YopH PTP inh -50, Mtb bLac sens -2, Mtb growth 5%, Arbovirus anti -1 and RecA intein inh -2.4.
`CCOC(=O)NC(O)C(=O)c1cccs1` (centres undefined) gave YopH PTP inh -41, Mtb bLac sens 8, Mtb growth -7%, Arbovirus anti 8 and RecA intein inh 0.0.
Cc1ccc(-c2nc(N)n(S(=O)(=O)c3ccc(C)cc3)n2)cc1 was read as Mtb bLac sens -1, Mtb growth 7%, Arbovirus anti -1 and RecA intein inh -1.3.
Screening Cc1ccc(Oc2nc(-c3ccccn3)nc3ccccc23)cc1 returned Mtb bLac sens 90, Mtb growth 2.6µM* and RecA intein inh 24.
`O=C(c1cccs1)c1cn(CC(=O)N2CCc3ccccc3C2)c2ccccc12` gave YopH PTP inh 7, Mtb bLac sens 7, Mtb growth 1%, Arbovirus anti 0 and RecA intein inh -1.2.
Screening CCc1cc(=O)oc2c(C)c(OS(C)(=O)=O)ccc12 returned YopH PTP inh -8, Mtb bLac sens -10, Mtb growth 2% and RecA intein inh -1.7.
CCOC(=O)C1=C(N)Oc2cc(O)ccc2C1c1cccc([N+](=O)[O-])c1 (centres undefined) was read as Mtb bLac sens 5, Mtb growth -2%, Arbovirus anti -10 and RecA intein inh 5.7.
`CC(=O)Nc1ccc(S(=O)(=O)N2c3ccccc3NC(=O)CC2C)c(Cl)c1` (centres undefined) gave Mtb bLac sens -2, Mtb growth 2% and RecA intein inh -1.0.
CCOC(=O)c1cc2c(=O)n3cccc(C)c3nc2n(CC(C)C)c1=NC(=O)c1ccco1 was read as Mtb bLac sens -7, Mtb growth -5% and RecA intein inh inactive.
COC(=O)c1c(NC(=O)CSc2nnc(CNc3ccc(Cl)cc3)o2)sc(C)c1C was read as YopH PTP inh 0, Mtb bLac sens -8, Mtb growth -4%, Arbovirus anti 2 and RecA intein inh -27.

Four entries drawn at random from those above, as already listed:
`Clc1ccccc1Cc1noc(CN2CCN(Cc3ccccn3)CC2)n1` gave Mtb bLac sens 2, Mtb growth 0%, Arbovirus anti 4 and RecA intein inh -3.2.
For Clc1ccc(-c2ncc3ccccn23)cc1 the results were Mtb bLac sens 8, Mtb growth 0%, Arbovirus anti 3 and RecA intein inh 2.5.
CNS(=O)(=O)c1cccc(C(=O)OCC(=O)Nc2ccc(N3CCCCC3)cc2)c1 was read as Mtb bLac sens -6, Mtb growth -8%, Arbovirus anti 2 and RecA intein inh -1.6.
For COc1ccc(S(=O)(=O)N2CC(O)C[C@H]2C(=O)OCC(=O)N2CCCCCC2)cc1 (some centres undefined) the results were Mtb bLac sens 2, Mtb growth 1%, Arbovirus anti 4 and RecA intein inh -0.5.

Carrying on.
CCCNC(=S)N(Cc1ccccc1)Cc1nc2ccccc2c(=O)[nH]1 was read as YopH PTP inh -24, Mtb bLac sens -1, Mtb growth 9%, Arbovirus anti 8 and RecA intein inh 0.0.
Screening Cc1ccc2nc3c(cc(C(=O)NCCCn4ccnc4)n3C)c(=O)n2c1 returned YopH PTP inh -57, Mtb bLac sens 6, Mtb growth -2%, Arbovirus anti -2 and RecA intein inh inactive.
For Cc1ccc(SCC(=O)c2ccc(CC(=O)O)s2)cc1 the results were Mtb bLac sens -1, Mtb growth 2% and RecA intein inh 5.3.
For O=C(CNS(=O)(=O)c1ccccc1)NCC(=O)OCc1ccccc1F the results were YopH PTP inh -19, Mtb bLac sens -2, Mtb growth -4%, Arbovirus anti 7 and RecA intein inh -5.6.
For COC(=O)C1=C(C)OC(N)=C(C#N)C1c1ccco1 (centres undefined) the results were YopH PTP inh -25, Mtb bLac sens -5, Mtb growth 0%, Arbovirus anti 2 and RecA intein inh -1.6.
